Assay outcomes deposited in PubChem BioAssay by National Center for Advancing Translational Sciences (NCATS).
2A StopGo: FMDV 2A StopGo reporter, luciferase signal | human cells with a luciferase reporter of 2A StopGo recoding; control for the full effect not named in the record | Potency, µM (highest dose often 57.9 µM), for inactives: at the top dose signal change, negative = less light | actives 1.2% (n = 410,000); active = well fitted falling curve with a large enough effect; inconclusive = small, poorly fitted or top-dose-only effect; inactive = no such curve, though single readings can be large or run the other way; tested in HEK293T cells; further: on the % scale 0 is the no-effect control and ±100 the full control effect; nearly all actives have a fitted effect of over 45% in size; luciferase light after 4 h
Lassa entry inh: Lassa virus entry inhibition; Lassa virus pseudotype entry inhibition, cell reporter; control for the full effect not named in the record; Potency, µM (highest dose often 37.9 µM), for inactives: top-dose activity change, negative = inhibition, hits mostly inhibitors; actives 1.2% (n = 300,000); AID 540256; active means well fitted inhibition curve with a large enough effect; inconclusive means small, poorly fitted or top-dose-only effect, or effect the other way; inactive means flat fitted curve, though single readings scatter; tested in HEK293 cells; further: on the % scale 0 is the no-effect control and ±100 the full control effect; nearly all actives have a fitted effect of over 50% in size; luciferase read-out
Marburg entry inh: inhibitors of Marburg virus binding or cell entry; Marburg virus pseudotyped entry inhibition, cell reporter; control for the full effect not named in the record; about a third of the inactives were read at about 46 µM; Potency, µM (series often up to 37.8 µM), inactives show at the top dose activity change, negative = inhibition, usual class: inhibitors; actives 1.8% (n = 300,000); AID 540276; active = well fitted inhibition curve with a large enough effect; inconclusive = small, poorly fitted or top-dose-only effect, or effect the other way; inactive = flat fitted curve, though single readings scatter; tested in HEK293 cells; about a fifth of its hits are not listed in these tables; further: on the % scale 0 is the no-effect control and ±100 the full control effect; luciferase read-out
Cruzain noTriton: cruzain (T. cruzi) inhibition without detergent; Potency, µM, inactives show max response, negative = inhibition, usual class: inhibitors; actives 2.3% (n = 200,000); purified cruzain, Z-FR-AMC fluorescence, no detergent; AID 1476; active means well fitted curve in the direction sought with a large enough effect; inconclusive means small, poorly fitted or top-dose-only effect, or another doubt; inactive means no such curve, though single readings can be large; an effect the other way counts as inactive or inconclusive;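 further: plate controls were enzyme without inhibitor for no effect and buffer without enzyme for full effect; nearly all actives have a fitted effect of over 40% in size; top concentration of the series not given in the record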
Target sequence (P25779 123-467 limits assumed): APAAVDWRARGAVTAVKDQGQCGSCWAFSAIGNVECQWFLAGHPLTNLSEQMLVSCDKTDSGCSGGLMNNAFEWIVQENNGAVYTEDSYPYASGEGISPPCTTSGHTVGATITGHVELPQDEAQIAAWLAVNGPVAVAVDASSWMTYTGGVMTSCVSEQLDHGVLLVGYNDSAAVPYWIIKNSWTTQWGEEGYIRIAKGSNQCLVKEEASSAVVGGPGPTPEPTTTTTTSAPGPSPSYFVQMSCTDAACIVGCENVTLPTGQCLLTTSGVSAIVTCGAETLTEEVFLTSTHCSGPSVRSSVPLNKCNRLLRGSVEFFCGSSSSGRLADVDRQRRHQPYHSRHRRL
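Purified cruzain at 1.5 nM, pre-incubated 15 min with compound at room temperature in 100 mM sodium acetate pH 5.5, 5 mM DTT, 0.00005% Triton X-100. Reaction started with 2 uM Z-FR-AMC; AMC fluorescence increase over 60 s gives rate.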
RE007 growth inh: less growth of the S. pombe RE007 Vpr strain. S. pombe RE007 Vpr strain, BacTiter-Glo ATP luminescence, 24 h; control for the full effect not named in the record. AID 651644. Potency, µM (doses to about 92.2 µM), inactives show at the top dose activity change, negative = less growth. actives 0.21% (n = 360,000); active = well fitted falling curve with a large enough effect; inconclusive = small, poorly fitted or top-dose-only effect; inactive = no such curve, though single readings can be large or run the other way;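 further: on the % scale 0 is the no-effect control and ±100 the full control effect; nearly all actives have a fitted effect of over 50% in size; the assay follows cell death caused by Vpr and the record does not say whether a fall means rescue or toxicity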
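Fission yeast RE007 carrying one integrated HIV-1 vpr copy, seeded at OD 0.01 in PMG+AL medium with 23 nL pinned compound. Grown 24 h at 30 degrees; viability read by BacTiter-Glo luminescence after 5 min.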
Cruzain Triton: blocks cruzain activity in presence of Triton detergent; P25779; purified cruzain, Z-FR-AMC fluorescence, 0.01% Triton; Potency, µM, inactives show max response, negative = inhibition, usual class: inhibitors; actives 0.43% (n = 200,000); AID 1478; active means well fitted curve in the direction sought with a large enough effect; inconclusive means small, poorly fitted or top-dose-only effect, or another doubt; inactive means no such curve, though single readings can be large; an effect the other way counts as inactive or inconclusive;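 further: plate controls were neutral wells for no effect and buffer without enzyme for full effect; nearly all actives have a fitted effect of over 40% in size; top concentration of the series not given in the record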
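Detergent-containing arm of a paired screen for aggregation-based inhibition: 0.01% Triton X-100 present. Cruzain at 1.5 nM cleaved 2 uM Z-FR-AMC at pH 5.5 with 5 mM DTT; AMC fluorescence gain over 60 s measured activity.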
SARS PLpro yeast: inhibitors of SARS-CoV papain-like protease in yeast. S. cerevisiae expressing SARS-CoV PLpro, growth rescue; control for the full effect not named in the record. Potency, µM (titrated, usually from 32.9 µM), without a hit: top-dose activity, positive = growth rescue. actives 0.19% (n = 330,000). AID 485353; further: 0% is about no effect; nearly all actives have a fitted effect of over 55% in size; growth read by luminescence after 48 h
NS1 inh: influenza NS1 inhibition; S. cerevisiae slowed by influenza A NS1, growth recovery by OD600; Potency, µM (doses to about 46.1 µM), without a hit: at the highest dose activity, positive = more growth; actives 0.4% (n = 270,000); AID 2326; further: actives are rising curves; nearly all actives have a fitted effect of over 50% in size
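Read-out: OD600 growth recovery of NS1-expressing budding yeast. Cells grown overnight at 30C in -URA glucose medium, washed, resuspended and diluted 1:100 in 2% galactose assay medium, pH 6.0. Same strain lacking NS1 served as positive control.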
An asterisk follows results filed as active; ? = inconclusive; · = no result given; & = joins results of further samples; [ ] = another dose, or the depositor's remark. Unless noted, the call rests on the fitted dose curve; in most records, active means well fitted rising curve with a large enough effect; inconclusive means small, poorly fitted or top-dose-only effect; inactive means no such curve, though single readings can be large or run the other way. Potency means the concentration at half of the fitted maximal effect.

SMILES	2A StopGo	Lassa entry inh	Marburg entry inh	Cruzain noTriton	RE007 growth inh	Cruzain Triton	SARS PLpro yeast	NS1 inh
COC(=O)c1ccc(Oc2nc(SC)nc(N(C)C)n2)cc1	6%	-7%	?	·	1%	·	-1%	-6%
N#CCCN1CCN(S(=O)(=O)c2ccc(S(=O)(=O)N3CCCCCC3)cc2)CC1	-23%	·	·	0%	0%	6.1%	-1%	0%
COc1ccc(N2CC(C(=O)N[C@@H](C)C(=O)N3CCCCC3)CC2=O)cc1 (stereo not given in full)	-3%	?	7%[46.1 µM]	·	6%	·	52%	-2%
COc1cccc(CC2(CO)CCN(Cc3ccc4cccc(F)c4n3)CC2)c1	-28%	-1%	?	·	-9%	·	0%	-3%
COc1ccccc1Nc1nn2c(=O)c3ccc(C(=O)NC4CCCCC4)cc3nc2s1	?	8%[46.1 µM]	·	-5%	·	-2.6%	·	·
Cc1ccc(N(C(=O)C(F)(F)F)C(C(=O)NC2CCCCC2)c2cccs2)cc1C (stereo not given)	16%	4%	17%	-6%	10%	-2.9%	1%	8%
COc1ccc(OCc2nc3c4c(-c5ccc(OC)cc5)c(-c5ccc(OC)cc5)oc4ncn3n2)cc1	0%	3%[46.1 µM]	0%[46.1 µM]	-7%	·	-1.2%	·	·
Cc1cc(NC(=O)CSc2ccc3nnc(CCNS(=O)(=O)c4ccccc4)n3n2)no1	-13%	28%[46.1 µM]	8%[46.1 µM]	·	4%	·	2%	·
COc1ccc(S(=O)(=O)N2CCN(CCO)CC2)cc1-c1nnc2c3ccccc3c(C)nn12	0%	1%	-7%&-7%	-5%	-3%	-1.9%	2%	-10%
COc1ccc(CCNC(=O)c2ccc(Cl)c(S(=O)(=O)N(C)c3ccccc3)c2)cc1	28µM*	?	?	5%	10%	-3.0%	-2%	0%
CCOc1ccc(S(=O)(=O)Nc2cc3c(C(=O)OC)c(COC)oc3c3ccccc23)cc1	38%[activator]	-26%[46.1 µM]	?	-1%	·	-7.3%	·	·
Cc1cc(C)nc(N2CCC(C(=O)Nc3nnc(C)s3)CC2)n1	1%	-13%	-2%	0%	2%	3.3%	5%	-14%
O=C(C1CCCN1S(=O)(=O)c1ccc(Br)cc1)N1CCOCC1 (stereo not given)	-13%	16%[46.1 µM]	-4%[46.1 µM]	·	18%	·	1%	8%
Cc1nn(-c2ccccc2)c(NC(=O)C(C)C)c(-c2ccccc2)c1=O	6%	16%	4%	·	11%	·	0%	5%
COc1cc(-c2noc(CCCC(=O)Nc3cccnc3)n2)cc(OC)c1OC	-3%	-8%[46.1 µM]	5%[46.1 µM]	·	4%	·	0%	-4%
COc1ccc(-c2cc3c(=O)n(CC(=O)N4CCCCC4)ncn3n2)cc1	-1%	17%[46.1 µM]	1%[46.1 µM]	·	-1%	·	8%	7%
CN(C)c1ccc(C(CNS(=O)(=O)c2ccc(F)cc2)N2CCOCC2)cc1 (stereo not given)	2%	-3%[46.1 µM]	·	2%	·	-2.3%	·	·
CC1C(=O)N2CCCc3cc(S(=O)(=O)N(C)CCC#N)cc1c32 (stereo not given)	-8%	·	·	·	-11%	·	20%	1%
Cc1cc(C=C2C(=O)CCCC2=O)c(C)n1-c1ccccc1	-24%	7%	-9%	-11%	13%	-5.0%	?	11%
Cc1ccc(C(=O)COC(=O)CNC(=O)c2ccc(Br)o2)cc1[N+](=O)[O-]	-3%	·	·	·	4%	·	-1%	7%
COc1ccc(Nc2ccc(S(=O)(=O)N3CCCCC3)cc2[N+](=O)[O-])cc1Cl	-9%	1%	-24%	?	0%	-6.6%	4%	?
Cc1ccccc1NC(=O)C1C2C=CC(C3CC23)C1C(=O)O (stereo not given)	-15%	-14%[46.1 µM]	0%[46.1 µM]	·	-17%	·	0%	·
Cc1nnc(SCc2ccccc2Cl)c2cc3occc3n12	42%[activator]	16%[46.1 µM]	·	?	·	-4.8%	·	·
O=C(Nc1ccc(S(=O)(=O)Nc2ncccn2)cc1)c1ccc(Br)s1	19%	-5%	-21%	-7%	5%	47%[activator]	3%	6%
Cc1ccc(OCC(=O)NCC(c2ccc(Cl)cc2)N2CCCCC2)cc1 (stereo not given)	-20%	21%[46.1 µM]	?	12%	·	-1.6%	·	·
COc1ccc(CN2CCN(CCCc3ccccc3)C(CCO)C2)cc1OC (stereo not given)	?	9%	-4%	·	6%	·	3%	8%
CCOc1ccc(CCNC(=O)c2ccc(CS(=O)Cc3ccccc3Cl)o2)cc1 (stereo not given)	-25%	·	·	·	2%	·	-15%	-2%
O=C(NCc1cccs1)c1ccc2c(=O)n3nc(Nc4ccccc4)sc3nc2c1	-20%	-21%[46.1 µM]	·	4%	·	1.8%	·	·
CCCCNC(=O)CSc1nc2ccsc2c(=O)n1CCCC(=O)NCCc1ccc(S(N)(=O)=O)cc1	-20%	14%[46.1 µM]	8%[46.1 µM]	·	8%	·	-3%	·
COC(=O)C1=CNC=C(C(=O)OC)C1c1ccc(C(=O)OC)cc1	24%	-24%	?	14%	-1%	-21%	-2%	0%
COc1cc([N+](=O)[O-])cc2sc(NC(C)=O)nc12	-20%	·	-6%	·	-7%	·	1%	-5%
O=C1CSC(=S)N1/N=C/c1ccc(O)c([N+](=O)[O-])c1	-11%	23%	27%[46.1 µM]	·	28µM*	·	-3%	·
O=c1oc2ccccc2c(N2CCCCC2)c1CN1CCCC1	20%	2%	-22%	-1%	-12%	-3.5%	6%	-9%
CCCN(CCC)C(=O)Cn1c(=O)n(Cc2ccc(C(=O)NCCc3ccc(Cl)cc3)cc2)c(=O)c2ccccc21	9%	4%[46.1 µM]	3%[46.1 µM]	10%	·	-1.2%	·	·
CSCCC(NS(=O)(=O)c1ccc2c(c1)oc(=O)n2C)C(=O)N1CCN(c2cc(Cl)ccc2C)CC1 (stereo not given)	-14%	?	·	6%	·	-5.3%	·	·
CCOC(=O)COc1cccc2c(=O)n(CC(=O)N3CCC(C)CC3)ccc12	0%	·	·	·	-12%	·	2%	4%
CC(NC(=O)C1CCCN(S(=O)(=O)c2cccs2)C1)c1ccccc1 (stereo not given)	-18%	·	·	-6%	-6%	-0.1%	-2%	-9%
CCN(CC)CCN1C(=O)C(=O)/C(=C(/O)c2ccc(F)cc2)C1c1ccncc1 (stereo not given)	-10%	3%	-20%	-4%	0%	-4.2%	-15%	0%
O=c1cc(C(F)(F)F)[nH]c2ccc(C(F)(F)F)cc12	?	?	?	·	-21%	·	-6%	-43%
Cc1cccc(N2CCN(C(=O)c3cc(S(=O)(=O)N4CCC(C)CC4)cn3C)CC2)c1C	-26%	-22%[46.1 µM]	·	?	·	-8.1%	·	·
O=C(c1cccc(C(F)(F)F)c1)N1CCN(c2cc(=O)[nH]nc2-c2ccccc2)CC1	3%	-14%	1%	?	-5%	-1.1%	1%	9%
O=C(OCC(=O)N1CCCCC1)c1ccc(OC(F)(F)F)cc1	35%[activator]	8%	2%	·	8%	·	-1%	·
COCCN(C(=O)Nc1ccccc1)C(C)c1cccnc1 (stereo not given)	12%	·	·	-11%	-8%	2.2%	-2%	1%
OCC1OC(n2cnc3c(NC4CCCCC4)ncnc32)C(O)C1O (stereo not given)	7%	·	·	·	4%	·	0%	1%
COc1cccc(N2CCN(CC(=O)NCc3ccccc3)CC2)c1	-10%	?	1%	·	11%	·	-6%	2%
CCC(=O)Nc1ccc(NC(=O)CSc2nc3c(c(=O)n(C)c(=O)n3C)n2CC)cc1	-3%	-6%	6%[46.1 µM]	·	0%	·	-1%	2%
COc1ccc(C(=O)N/N=C/c2cccnc2)cc1	27%	·	·	·	-4%	·	2%	-4%
CCOC(=O)COc1nc(C)cc(C(F)(F)F)c1C#N	-11%	7%	?	·	-11%	·	0%	2%
CC(C)C(=O)NNC(=O)c1c(O)c2ccccc2[nH]c1=O	-8%	·	·	·	-2%	·	3%	-36%
COc1ccc(C)c2sc(=NC(=O)c3ccc(C(C)=O)cc3)n(C)c12	2%	·	·	·	-3%	·	-2%	3%
O=C(NCCc1ccc(F)cc1)C(=O)NCC(c1cccs1)S(=O)(=O)c1cccs1 (stereo not given)	?	?	·	3%	·	-0.4%	·	·
CSc1ncc(Cl)c(C(=O)NCc2ccc(C)cc2)n1	-17%	3%[46.1 µM]	0%[46.1 µM]	-12%	·	-4.5%	·	·
COc1ccc(NC(=O)CC2C(=O)OCC3CCCCN32)cc1Cl (stereo not given)	0%	0%	-5%	7%	·	-2.7%	-55%	-12%
CCn1cc(-c2nnnn2-c2ccc(Cl)cc2)c(=O)c2ccccc21	27%	15%	7%	2%	1%	3.0%	-5%	6%
Cc1ccc(N2CC(C(=O)OCc3ccccc3)CC2=O)cc1 (stereo not given)	3%	?	17%	-5%	-7%	0.6%	1%	-16%
CCc1nc(C)cn1S(=O)(=O)c1cc(Br)c(C)cc1OC	-23%	-4%	?	25%	1%	0.1%	-8%	-31%
O=C(CN1CCN(Cc2ccccc2)CC1)Nc1cccc(Cl)c1	-14%	-22%	13%	·	3%	·	-4%	5%
Cc1ccc(NC(=O)/C(=C/c2ccncc2)NC(=O)c2ccccc2)cc1	38%[activator]	-6%	-24%	-8%	6%	-4.1%	20%	-9%
Cc1ccc(S(=O)(=O)C(CNC(=O)COc2ccccc2)c2ccco2)cc1 (stereo not given)	-3%	-29%[46.1 µM]	·	-5%	·	-2.9%	·	·
Cc1cc(NC(=O)CSc2nc3cc(Cl)ccc3o2)no1	-10%	4%[46.1 µM]	13%[46.1 µM]	·	4%	·	0%	0%
CCCS(=O)(=O)N1CCN(Cc2ccncc2)CC1	·	1%	7%	-9%	2%	-4.0%	3%	-3%
Cn1c(CC(=O)NCCO)c(Sc2ccccc2)c2ccccc21	-12%	-9%	?	?	-12%	-1.5%	?	-15%
COc1ccc(/C=N/NC(=O)CNc2ccc(Br)cc2)c(C(=O)O)c1OC	18%	7%[46.1 µM]	9%[46.1 µM]	·	7%	·	-5%	·

The order is random; any-hit rate near 4.8%.
